# AF4-AF9 inh = blocks AF4 peptide binding to human AF9. P42568. AlphaScreen, biotin-AF4 peptide binding to FLAG-AF9. inhibition, % at 10 µM. 350,000 tested, 0.47% active. AID 651704;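 active = every replicate reaching a set inhibition limit, whatever the replicate mean, cut at about 25% in these data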;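 also: 0% = plate neutral control median and 100% = total signal loss; the record names both 10 and 1 µM as test concentration; the first replicate is given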
# Target sequence (P42568 whole entry, looked up): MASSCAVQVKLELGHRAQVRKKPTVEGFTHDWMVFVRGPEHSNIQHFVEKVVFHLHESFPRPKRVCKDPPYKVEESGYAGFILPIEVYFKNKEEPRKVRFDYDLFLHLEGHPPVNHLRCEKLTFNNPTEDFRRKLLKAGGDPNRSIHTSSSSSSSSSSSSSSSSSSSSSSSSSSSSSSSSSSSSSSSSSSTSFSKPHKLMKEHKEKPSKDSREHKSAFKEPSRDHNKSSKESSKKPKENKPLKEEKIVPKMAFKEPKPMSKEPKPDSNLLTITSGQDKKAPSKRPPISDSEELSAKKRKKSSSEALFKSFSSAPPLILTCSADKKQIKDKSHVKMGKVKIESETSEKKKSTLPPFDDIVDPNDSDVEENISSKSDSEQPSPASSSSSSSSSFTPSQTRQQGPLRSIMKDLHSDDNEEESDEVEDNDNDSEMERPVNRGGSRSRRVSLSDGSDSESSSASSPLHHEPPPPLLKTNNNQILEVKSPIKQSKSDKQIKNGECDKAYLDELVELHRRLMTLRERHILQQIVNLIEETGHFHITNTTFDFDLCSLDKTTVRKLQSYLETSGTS
# A1 inh = inhibitors of the anti-apoptotic protein A1, read as caspase activation | MEF A1-2A-BIM cells, Caspase-Glo 3/7 luminescence, 3 h; percent of clofoctol response, vehicle zero | caspase activation, % (concentration not given with the values) | 330,000 tested, 0.066% active;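 active = over half of replicate activation scores above 10%, or exactly half above 10 with the replicate mean above 10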;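 also: wells of about 30 µL received 50 nL stock; many hits fall short of the cut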
# FGF22 binding = shifts melting point of recombinant human FGF22 | AID 651658 | Q9HCT0 | recombinant FGF22 thermal shift, SYPRO orange fluorescence; percent of sucrose octasulfate shift, DMSO zero | 340,000 tested, 1.5% active | calls only at 9.99 µM;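 active = melting point raised past a set limit in the mean and every replicate; three in four hits are not shown here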
# Target sequence (Q9HCT0 whole entry, looked up): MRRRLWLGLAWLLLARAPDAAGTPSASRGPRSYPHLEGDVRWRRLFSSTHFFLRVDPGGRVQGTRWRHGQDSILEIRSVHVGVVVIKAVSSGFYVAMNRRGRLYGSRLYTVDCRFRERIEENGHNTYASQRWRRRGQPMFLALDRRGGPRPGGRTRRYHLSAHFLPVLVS
# Beta cell apopt = beta cell apoptosis inhibition; INS-1E cytokine-induced death, ATP luminescence, 48 h; percent of positive-control rescue, neutral wells zero; protection from apoptosis, % (concentration not given with the values); 300,000 tested, 0.8% active;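 active = all replicates at 75% or more, or half of them and the mean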;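 also: 0% = cytokine-treated negative control wells and 100% = positive control rescue; higher means more ATP so stronger rescue from cytokine killing; wells of about 40 µL received 100 nL stock; the first replicate is given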
# rRNA inh HTS = inhibitors of bacterial rRNA selective over humanized ribosomes | E. coli WT GFP vs humanized-ribosome RFP mutants, fluorescence, 24 h; stronger effect = lower value; DMSO median 0, no signal -100 | 350,000 tested, 1.6% active | GFP signal change (wild-type ribosome), % (concentration not given with the values) | AID 720706;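 active = significant combined selectivity score with lowered wild-type GFP, culture density cut under 30%, mutant RFP and density less affected; inactive = any of these conditions unmet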; also: one replicate is shown; some compounds called inactive have numbers as strong as hits
# UCH37 DUB inh = human UCH37 deubiquitinating enzyme inhibition; purified proteasome/UCH37, Ub-AMC cleavage fluorescence; inhibition, % (no concentration beside the values); AID 588478; 330,000 tested, 0.33% active; Q9Y5K5;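 active = mean of two replicates above 20%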;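 also: 0% = compound-free wells with enzyme and 100% = wells lacking proteasome; stock transfer was 100 nL into about 20 µL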
# Target sequence (Q9Y5K5 whole entry, looked up): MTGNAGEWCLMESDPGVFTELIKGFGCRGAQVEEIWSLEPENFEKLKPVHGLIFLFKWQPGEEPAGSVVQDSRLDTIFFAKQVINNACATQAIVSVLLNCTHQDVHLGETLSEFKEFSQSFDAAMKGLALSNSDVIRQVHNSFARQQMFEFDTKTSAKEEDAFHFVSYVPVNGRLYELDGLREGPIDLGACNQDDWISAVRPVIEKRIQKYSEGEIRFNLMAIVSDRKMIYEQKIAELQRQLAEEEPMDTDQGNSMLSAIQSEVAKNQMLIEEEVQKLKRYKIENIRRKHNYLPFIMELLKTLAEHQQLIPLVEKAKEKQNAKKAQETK
#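 Material: Human UCH37 enzyme supplied as purified proteasome complex | Schedule: 30 min preincubation with enzyme, 25 min cleavage at room temperature | Detection: AMC fluorescence 355/460 nm | Measure: % inhibition of Ub-AMC cleavage fluorescence | Controls: Wells without proteasome as full block, compound-free enzyme plus substrate as uninhibited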
# E coli growth = blocks Escherichia coli growth. OD600, 23 h; stronger effect = lower value. OD600 absorbance (test concentration not listed). 330,000 tested, 0.21% active. AID 1053175;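 active = OD600 absorbance below the run mean of sample wells minus 3.6 SD, in any replicate, cut at about 0.56 in these data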;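 also: stock transfer was 300 nL into about 60 µL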
# T cruzi inh = blocks replication of Trypanosoma cruzi. T. cruzi beta-gal in NIH3T3, luminescence, 90 h. inhibition, % (concentration not given with the values). 300,000 tested, 1.4% active. AID 1885;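 active = mean inhibition across valid replicates above about 55%, limit read from the data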;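 also: signal also drops with host cell toxicity which is not excluded here; 0% = plate median of DMSO wells and 100% = zero luminescence signal; higher percent means less beta-gal luminescence so fewer parasites; stock transfer was 50 nL into about 50 µL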
# rRNA inh HTS OD600 = further read-out of rRNA inh HTS, marked with its call; OD600 change, %; measured here: OD600 growth;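 optical density of the mix in the first replicate; 0 = DMSO median and -100 = no signal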
# rRNA inh HTS RFP = further read-out of rRNA inh HTS, marked with its call; RFP signal change, %; measured here: RFP humanized mutant strains;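 first replicate; 0 = DMSO median and -100 = no signal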
# * marks the source's active call; other numbers are inactive results; i = inactive; nt = no result given; + = active, no number.
SMILES,AF4-AF9 inh,A1 inh,FGF22 binding,Beta cell apopt,rRNA inh HTS,rRNA inh HTS OD600,rRNA inh HTS RFP,UCH37 DUB inh,E coli growth,T cruzi inh
CC1=C[C@@H](C)[C@@H](c2ccccc2)OC1=O,-0.5,1.7,i,-1.4,7.4,19.7,0.2,1.4,nt,-10.4
COC(=O)CCNC(=O)c1ccc2[nH]c(C)c(C)c2c1,-0.3,1.2,i,-5.2,5.6,3.9,-0.2,0.3,0.699,-3.1
Cc1cc(OCCN2CCCC2)ccc1[N+](=O)[O-],nt,0.8,nt,3.1,nt,nt,nt,3.7,0.711,27.8
COc1cccc(NC(=S)NC(=O)c2c(Cl)c(C)nn2C)c1,nt,-2.3,nt,0.6,nt,nt,nt,2.7,0.718,7.1
CCOC(=O)C1CCN(C(=O)CC(C)S(=O)(=O)c2ccc3c(c2)NC(=O)CO3)CC1 (centres undefined),-4.4,0.8,i,-2.0,1.6,1.9,-0.3,1.7,0.662,5.6
Cc1cccc(C)c1NC(=O)CSc1nnc(-c2ccoc2C)n1C,nt,1.0,nt,-0.8,nt,nt,nt,3.0,0.723,-0.9
Cc1ccc(NC(=O)c2ccc(F)c(S(=O)(=O)N3CCOCC3)c2)cc1F,nt,-0.3,nt,8.7,nt,nt,nt,1.2,0.613,9.8
CCCCOc1ccc(C(=O)N2CC(C)OC(C)C2)cc1 (centres undefined),-2.3,-0.4,i,-2.4,1.6,9.2,2.6,1.8,0.706,-12.8
COc1cc(C=Nc2cccc([N+](=O)[O-])c2C)ccc1OC(C)=O,-1.4,3.2,i,-1.6,-4.3,1.4,2.7,-0.9,0.676,-3.5
CC(C)(C)SCCNC(=O)/C=C/c1ccc([N+](=O)[O-])cc1,0.1,1.9,i,-5.7,6.9,4.1,0.8,5.1,0.649,11.7
O=C(Cc1ccc([N+](=O)[O-])cc1)N1CCCCCC1,0.5,1.6,i,nt,9.4,-2.0,2.2,0.9,0.704,-24.5
Cc1cc(F)ccc1NCc1cccnc1,nt,0.2,nt,-3.3,nt,nt,nt,2.4,0.687,5.8
Cn1c(N)c(C(=O)COC(=O)c2ccc(-c3ccccc3)cc2)c(=O)n(C)c1=O,-0.7,-2.4,i,-4.8,-11.8,-2.0,9.7,4.4,0.71,nt
CCc1ccc(C(=O)c2oc3nc(C)cc(C)c3c2N)cc1,nt,0.7,nt,7.3,nt,nt,nt,-27.1,0.756,-14.4
COc1ccc(CCN2C(=O)NC(NS(=O)(=O)c3ccc(N)cc3)(C(F)(F)F)C2=O)cc1OC (centres undefined),-0.9,0.2,i,-2.9,-3.9,1.8,9.3,0.6,0.667,3.8
Cc1ccc(NC(=O)CN2C(=O)NC3(CCC(C)CC3)C2=O)c(Cl)c1 (centres undefined),nt,-0.2,nt,-1.8,nt,nt,nt,0.2,0.74,-7.7
Cc1ccc(S(=O)(=O)Nc2c(C)cc(C)nc2Cl)cc1,0.9,-0.3,i,-1.5,3.3,5.8,7.2,4.8,0.67,-12.8
COc1ccc2nc(Nc3nc(CSc4nnc(C)s4)cc(=O)[nH]3)nc(C)c2c1,nt,0.8,nt,5.5,nt,nt,nt,1.7,0.684,-11.8
CCc1ccccc1NC(=O)Cn1nnc(C(=O)NCc2cccs2)c1N,nt,0.4,nt,-1.1,nt,nt,nt,0.3,0.716,-6.7
Cc1cc(C)c(NC(=O)CN2CCN(C)CC2)c(C)c1,6.3,-0.2,i,-1.5,4.0,6.8,-0.5,2.4,0.677,-8.4
CCOc1ccc(CN2CCNC(=O)C2CC(=O)NC2CCCCCC2)cc1 (centres undefined),0.9,0.3,nt,2.8,7.6,6.6,3.5,-6.1,0.731,10.5
CCOc1ccc(NC(=O)CC2C(=O)N(c3ccccc3)C(=O)N2Cc2ccco2)cc1 (centres undefined),1.3,-0.1,nt,-1.1,1.8,3.9,0.6,3.9,0.73,-11.4
COc1ccc2c(c1)CC/C(=C\C=C\c1ccccc1)C2=O,nt,-1.3,nt,-5.7,nt,nt,nt,1.5,0.714,1.9
COc1ccc(/C=C2\CCC(C3CCCC3)C2=O)cc1 (centres undefined),0.5,-2.5,i,-3.5,12.1,2.1,11.6,1.2,0.716,3.6

# Ordered by number of heavy atoms (smallest number first): some entries from above.
SMILES,AF4-AF9 inh,A1 inh,FGF22 binding,Beta cell apopt,rRNA inh HTS,rRNA inh HTS OD600,rRNA inh HTS RFP,UCH37 DUB inh,E coli growth,T cruzi inh
COc1ccc(/C=C2\CCC(C3CCCC3)C2=O)cc1 (centres undefined),0.5,-2.5,i,-3.5,12.1,2.1,11.6,1.2,0.716,3.6
CCc1ccc(C(=O)c2oc3nc(C)cc(C)c3c2N)cc1,nt,0.7,nt,7.3,nt,nt,nt,-27.1,0.756,-14.4
CCc1ccccc1NC(=O)Cn1nnc(C(=O)NCc2cccs2)c1N,nt,0.4,nt,-1.1,nt,nt,nt,0.3,0.716,-6.7

# (listing goes on)
SMILES,AF4-AF9 inh,A1 inh,FGF22 binding,Beta cell apopt,rRNA inh HTS,rRNA inh HTS OD600,rRNA inh HTS RFP,UCH37 DUB inh,E coli growth,T cruzi inh
Cc1cc(C)n2ncc(C(=O)NCc3ccc(Cl)cc3)c2n1,nt,-0.7,nt,8.1,nt,nt,nt,-17.2,0.653,-3.5
CCOC(=O)c1ccc(NC(=O)CCS(=O)(=O)c2ccc(Br)s2)cc1,nt,0.4,nt,-4.3,nt,nt,nt,6.0,0.684,5.8
Cc1cc(C)c[n+](-c2nc3ccccc3nc2[N-]S(=O)(=O)c2ccc(Cl)cc2)c1,2.2,0.4,i,-9.3,-5.5,-12.0,8.1,3.9,0.67,-0.1
CCOC(=O)c1cccc(NC(=O)CSc2nncn2-c2ccccn2)c1,0.4,0.6,nt,-2.4,-0.2,9.6,0.1,1.5,0.694,5.9
COC(=O)c1cccc(S(=O)(=O)N2CCN(c3nc4ccccc4s3)CC2)c1,nt,0.9,nt,3.6,nt,nt,nt,-0.6,0.689,15.3
O=c1c2cc3ccccc3n2cnn1Cc1ccccc1F,nt,0.1,nt,-5.2,nt,nt,nt,-2.3,0.738,-0.2
COCCC(=O)N1CCC(Oc2ccc(C(=O)N3CCCCC3COC)cc2)CC1 (centres undefined),-0.1,0.3,i,0.6,0.0,6.4,-2.1,5.9,0.674,-11.9
O=C(Nc1cccc(Cl)c1)c1cnccn1,-0.3,-4.1,i,-18.0,-6.6,-6.0,-3.6,1.1,0.639,-10.0
O=C(COC(=O)CCSc1ccccc1Cl)NCc1ccco1,0.7,-0.7,i,2.4,-3.5,1.3,0.5,-0.9,0.7,-9.6
O=C1c2cccc(OCC(=O)N3CCCc4ccccc43)c2CCN1Cc1ccccc1,-2.8,0.8,i,7.7,-20.8,-30.1,-2.5,4.9,0.719,16.0
CC(=O)c1sc(NC(=O)C2CCN(C(=O)c3ccccc3C)CC2)nc1-c1ccccc1,-2.4,-0.1,i,12.6,-30.0,-59.2,21.6,3.9,0.681,9.5
COc1cc(/C=N/NC(=O)c2cnccn2)cc(OC)c1OC,-3.0,-1.1,i,-1.4,1.5,10.5,8.0,nt,nt,2.9
COc1ccc(C2C=C(C34CC5CC(CC(C5)C3)C4)NC(=S)N2)cc1OC (centres undefined),-7.3,-1.9,i,-9.7,nt,nt,nt,4.8,0.684,7.8
CCOc1ccccc1CN1CCNC(=O)C1CC(=O)N(C)CCc1ccccn1 (centres undefined),-0.4,-0.2,i,-1.3,1.9,1.3,-3.4,nt,nt,-24.3
COc1ccc(-c2noc(CN(C(=O)c3ccc(OC(C)=O)cc3)C(C)C)n2)cc1OC,nt,-0.5,nt,-3.4,nt,nt,nt,0.1,0.72,9.2
Nc1nc(Nc2ccccc2)n[nH]1,1.0,-0.4,i,2.0,17.9,8.0,1.3,0.0,0.693,-3.7
Cc1cccc(NC(=O)C2CCN(S(=O)(=O)c3cccc4cccnc34)CC2)c1,-8.4,1.0,i,-0.2,-0.8,-12.9,1.6,9.3,0.761,11.9
CCOc1ccc(NC(=S)N(CCN2CCOCC2)Cc2cc3cc4c(cc3[nH]c2=O)OCCO4)cc1,11.5,0.7,i,-1.7,14.0,13.0,2.4,-20.9,0.69,10.9
C=CCN(CC=C)CC(O)CN(c1cc([N+](=O)[O-])ccc1OC)S(=O)(=O)c1ccccc1 (centres undefined),nt,-0.2,nt,0.5,nt,nt,nt,2.3,nt,-2.3
Cc1noc(C)c1S(=O)(=O)N1CCCC(C(=O)Nc2cccnc2)C1 (centres undefined),nt,1.6,nt,1.5,nt,nt,nt,0.0,0.721,2.9
O=C(O/N=C1\CCCc2ccccc21)C1CC1,-1.2,0.2,+,3.1,10.0,0.1,-2.5,nt,nt,-15.0
O=[N+]([O-])c1cc2c(cc1/C=N/n1cnnc1)OCO2,-0.7,0.9,i,-9.6,17.9,9.2,0.9,nt,nt,4.7
COc1ccc(C(=O)N/C(=C\c2cc(OC)c(OC)cc2[N+](=O)[O-])C(=O)NCCO)cc1,0.3,0.0,i,-8.3,8.6,2.6,2.6,8.7,0.695,nt
Cc1cccc(N2C(=O)c3ccc(C(=O)Nc4ccccn4)cc3C2=O)c1,-13.3,-1.2,i,-7.3,-9.6,7.8,-7.0,5.2,0.718,-8.2
CC(=O)N1CCc2cc(Br)cc(S(=O)(=O)NCCN3CCCCC3C)c21 (centres undefined),nt,0.2,nt,4.2,nt,nt,nt,4.9,0.731,7.6
O=C(COC(=O)/C=C/c1ccc(S(=O)(=O)N2CCOCC2)cc1)NCc1ccc(Cl)cc1,-1.2,0.8,i,7.1,17.1,1.4,-0.1,1.8,0.696,-1.0
CC(C)(C)c1ccc(-c2nnc3sc(-c4ccncc4)nn23)cc1,nt,0.0,nt,30.1,nt,nt,nt,-0.9,0.661,nt
O=C(Nc1ccccc1C(F)(F)F)c1cc(S(=O)(=O)N2CCOCC2)ccc1F,nt,0.1,nt,nt,nt,nt,nt,1.7,0.643,-15.6
CC(NC(=O)COC(=O)C1CCC1)c1ccccc1 (centres undefined),-16.2,0.5,i,-2.1,18.3,17.0,-0.1,1.1,0.63,-11.0
CC(=O)OCC(=O)[C@H]1CC[C@H]2[C@@H]3CCC4=CC(=O)CC[C@]4(C)[C@H]3CC[C@]12C,-9.3,-0.8,i,9.8,1.5,-20.8,5.8,2.3,nt,19.0
CCc1ccc(Nc2nc(C)cc(C)c2C(N)=O)cc1,0.8,1.5,i,-3.0,0.0,-1.3,-2.1,4.5,0.6,2.7
CCN(CC(=O)Nc1ccc(NC(C)=O)cc1)C(=O)Cc1ccc(Cl)c(Cl)c1,-8.5,nt,i,nt,0.8,-5.1,1.1,6.1,0.689,-14.9
Cc1ccc(CN2CCN(Cc3cn[nH]c3-c3cccc(F)c3)CC2CCO)o1 (centres undefined),0.9,0.0,i,-4.8,1.0,4.7,0.2,1.8,0.709,-10.8
COc1ccc(NC(=O)C(c2ccc(OC)cc2)N(Cc2ccco2)C(=O)CC2NC(=O)NC2=O)cc1 (centres undefined),3.6,-0.9,i,5.2,0.1,-2.5,1.4,4.3,0.65,-3.5
CC(C)CN(C(=O)CN1CCN(S(=O)(=O)c2ccc3ccccc3c2)CC1)c1c(N)n(CC(C)C)c(=O)[nH]c1=O,0.1,0.5,i,-6.7,1.7,5.3,-1.7,0.8,0.653,-21.2
COc1ccccc1C(=O)OCC(=O)Nc1ccccc1OC(F)F,-1.4,0.0,i,-4.8,-18.5,-0.6,9.5,1.4,0.662,-6.5

# From PubChem BioAssay

# An excerpt; rates above refer to the full screens.
